# Compound activity as filed in PubChem BioAssay.
# KAT2A inh: blocks human GCN5L2 histone acetyltransferase | AID 504327 | Q92830 | GCN5L2 HAT assay, ThioGlo1 CoA-SH fluorescence | Potency, µM (doses to about 58.9 µM), inactives show at the highest dose activity change, negative = inhibition, usual class: inhibitors | hit rate 0.21% among 390,000
# Target sequence (Q92830 whole entry, looked up): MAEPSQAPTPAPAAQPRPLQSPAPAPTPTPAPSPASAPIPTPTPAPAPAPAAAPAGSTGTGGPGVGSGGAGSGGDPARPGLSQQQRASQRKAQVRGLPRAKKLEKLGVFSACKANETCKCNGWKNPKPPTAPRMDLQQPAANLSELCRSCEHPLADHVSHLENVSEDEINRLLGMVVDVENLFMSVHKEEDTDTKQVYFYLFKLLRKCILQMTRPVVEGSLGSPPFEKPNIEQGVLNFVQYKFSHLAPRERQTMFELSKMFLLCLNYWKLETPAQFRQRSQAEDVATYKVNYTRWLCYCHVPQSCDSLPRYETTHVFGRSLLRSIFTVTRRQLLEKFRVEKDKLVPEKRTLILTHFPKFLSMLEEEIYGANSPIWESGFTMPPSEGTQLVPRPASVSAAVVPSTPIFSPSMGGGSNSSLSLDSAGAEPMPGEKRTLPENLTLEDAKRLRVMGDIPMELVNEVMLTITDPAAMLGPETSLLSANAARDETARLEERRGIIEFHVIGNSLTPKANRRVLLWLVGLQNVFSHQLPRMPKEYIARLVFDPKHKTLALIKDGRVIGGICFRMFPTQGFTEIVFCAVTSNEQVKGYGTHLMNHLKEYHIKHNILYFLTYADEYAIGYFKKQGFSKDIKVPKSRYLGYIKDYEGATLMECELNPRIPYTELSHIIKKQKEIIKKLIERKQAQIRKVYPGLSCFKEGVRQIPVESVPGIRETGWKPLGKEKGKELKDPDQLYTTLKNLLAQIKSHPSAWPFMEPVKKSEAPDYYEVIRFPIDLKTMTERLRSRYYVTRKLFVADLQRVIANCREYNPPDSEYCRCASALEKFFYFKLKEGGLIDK
#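 ThioGlo1-coupled HAT assay: 20nM GCN5L2, 70uM acetyl-CoA, 75uM H3(1-25) peptide, pH 7.5. Fluorescence read at 340/540nm at start and after 20 min at room temperature.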
# N370S GC: N370S glucocerebrosidase modulation, Gaucher chaperone candidate; P04062; N370S GC spleen homogenate, 4MU-glucoside fluorescence; Potency, µM (top dose mostly 59.4 µM), without a hit: at the highest dose activity change, negative = inhibition, hits mostly inhibitors; hit rate 0.092% among 330,000; AID 2101;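 further: 0% = full enzyme activity and -100% = no enzyme basal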
# * marks the source's active call; other numbers are inactive results; ? = inconclusive; . = no result given; [ ] = another dose, or the depositor's remark. The call rests on the fitted dose curve; in most records, active means well fitted curve in the direction sought with a large enough effect; inconclusive means small, poorly fitted or top-dose-only effect, or another doubt; inactive means no such curve, though single readings can be large; an effect the other way counts as inactive or inconclusive. Unless noted, on the % scale 0 is the no-effect control and ±100 the full control effect; potency means the concentration at half of the fitted maximal effect. Some of the compounds tested, and most or all hits are left out here.
KAT2A inh | N370S GC | mol
-24.8% | -5.4% | O=C(O)CCC(=O)Nc1sc2c(c1C(=O)NC1CCCC1)CCCC2
-4.1% | -21.7% | COc1cc(CN2CCC(Cc3ccccc3)CC2)c([N+](=O)[O-])cc1OC
-1.7% | 13.0% | O=C(N=C1SCC(=O)N1c1ccccc1Cl)c1ccccc1
-36.9% | -15.3% | Nc1ccc(C(=O)N/N=C/c2cn(Cc3ccc(F)cc3)c3ccccc23)cc1
-2.6% | -12.5% | COc1ccc(Cl)cc1C(=O)Nc1ccncc1
2.3% | -0.6% | COc1ccc(C(=O)Nc2nnc(-c3ccccc3)s2)cc1
-7.8% | -3.7% | CC(=O)Nc1ccc(S(=O)(=O)N(Cc2cccnc2)Cc2cc3ccccc3[nH]c2=O)cc1
-3.8% | 1.3% | CN(C)C(=O)Nc1ccccc1CC[N+](=O)[O-]
-1.1% | . | CC(C)(C)c1nnc(SCC(=O)Nc2ccc(N3CCCCC3)cc2)n1N
-1.2% | . | CCN(CC(=O)Nc1ccc(C(C)=O)cc1)CC(=O)Nc1ccc2c(c1)OCCO2
-3.5% | 3.5% | Cc1ccc(-n2nc(C)c3cc(C(=O)O)sc32)cc1
-21.7% | 0.7% | O=c1[nH]c2ccccc2c(O)c1Cc1ccccc1
-4.9% | -2.4% | CC(=O)c1nc(N2C(=O)CC(Cc3cc(C)cc(C)c3)C2=O)sc1C (stereo not given)
-4.8% | 16.7% | CC(=O)Oc1ccc(-c2cccc(C(=O)NCC(=O)O)c2)cc1
0.1% | -16.1% | CCCCC(=O)NNC(=O)c1c(O)c2ccccc2[nH]c1=O
2.1% | ? | CCCOc1ccc(NC(=O)CC2C(=O)N(CC)C(=S)N2CCNC(C)=O)cc1 (stereo not given)
-3.0% | ? | COC(=O)c1sc2nc(N3CCCCC3)c3c(c2c1N)CCCC3
0.4% | 5.7% | COc1ccc(C(=O)NCc2cn3cccc(C)c3n2)cc1OC
-3.9% | -5.0% | O=C(c1cc(-c2cccc(Cl)c2)on1)N1CCOCC1
3.8% | -4.3% | C=CCNC(=S)N/N=C(\C)c1ccc(-n2ccnc2)cc1

# Look-ups from above.
# In KAT2A inh, `C=CCNC(=S)N/N=C(\C)c1ccc(-n2ccnc2)cc1` has 3.8%
# In KAT2A inh, `Nc1ccc(C(=O)N/N=C/c2cn(Cc3ccc(F)cc3)c3ccccc23)cc1` has -36.9%

# Next compounds:
KAT2A inh | N370S GC | mol
-0.6% | . | CCCN(C(=O)c1ccc([N+](=O)[O-])c(C)c1)c1c(N)n(Cc2ccccc2)c(=O)[nH]c1=O
-18.5% | 2.2% | CNC(=O)c1c(NC(NC(=O)c2ccco2)C(=O)c2ccc(Cl)cc2)sc2c1CCCC2 (stereo not given)
-19.8% | 3.9% | COc1ccc(OC)c(NC(=O)CSc2nnc(-c3cnccn3)n2C)c1
1.9% | -13.2% | COc1ccc(NS(=O)(=O)c2cccc(C(=O)N3CCCC3)c2)cc1
? | -1.6% | CC(C)Cc1nnc(NC(=O)c2cc([N+](=O)[O-])ccc2N2CCOCC2)s1
-1.4% | . | CC(Sc1ccc(S(=O)(=O)N2CCCC2)cn1)C(N)=O (stereo not given)
1.3% | -8.7% | CCN(CC)CC#CCOC(c1ccccc1)c1ccccc1
-2.0% | 2.9% | CC(C)=CC(=O)OCC(=O)Nc1cccc([N+](=O)[O-])c1
-4.8% | . | COc1ccc(-c2onc(C)c2C)cc1S(=O)(=O)NCC1CCN(Cc2cccc(F)c2)CC1
-2.4% | 1.6% | O=C(O)c1ccccc1CSC1=NCCS1
-8.9% | -7.0% | Clc1ccc(OCCN2CCCCC2)c(Cl)c1
-4.7% | 5.0% | CCC1C(=NO)C(CC)C(c2ccccc2)NC1c1ccccc1 (stereo not given)
-5.8% | 7.4% | Cc1ccc(S(=O)(=O)Cn2nnnc2C(c2ccc(F)cc2)N2CCCCC2)cc1 (stereo not given)
-3.4% | . | Cc1cccc(-c2nnn3c2nc(NCCc2ccc(S(N)(=O)=O)cc2)c2cc(Cl)ccc23)c1
-5.9% | -2.1% | COc1cccc(C(=O)Nc2ccccc2F)c1
-2.8% | . | CC(C)n1cnc2c(NCc3ccccc3)cc(OCC3CCN(C)CC3)cc21
-10.5% | -15.7% | O=C(OCC#CCSc1nnc(-c2ccc(Br)cc2)o1)c1ccco1
-4.9% | 6.8% | COC(=O)C1=C(N)Oc2cc(C)[nH]c(=O)c2C1c1ccncc1 (stereo not given)
1.5% | 1.4% | CCc1ccc(Nc2ncc3c(n2)CC(C)CC3=O)cc1 (stereo not given)
-4.1% | 10.7% | CC1=NN(C(=O)c2csc(C)c2C)C(O)(C(F)(F)F)C1 (stereo not given)

# Gathered by group: the compounds so far with a Cl atom (6)
KAT2A inh | N370S GC | mol
-1.7% | 13.0% | O=C(N=C1SCC(=O)N1c1ccccc1Cl)c1ccccc1
-2.6% | -12.5% | COc1ccc(Cl)cc1C(=O)Nc1ccncc1
-3.9% | -5.0% | O=C(c1cc(-c2cccc(Cl)c2)on1)N1CCOCC1
-18.5% | 2.2% | CNC(=O)c1c(NC(NC(=O)c2ccco2)C(=O)c2ccc(Cl)cc2)sc2c1CCCC2 (stereo not given)
-8.9% | -7.0% | Clc1ccc(OCCN2CCCCC2)c(Cl)c1
-3.4% | . | Cc1cccc(-c2nnn3c2nc(NCCc2ccc(S(N)(=O)=O)cc2)c2cc(Cl)ccc23)c1

# The listing picks up, starting 2 compounds before the break.
KAT2A inh | N370S GC | mol
1.5% | 1.4% | CCc1ccc(Nc2ncc3c(n2)CC(C)CC3=O)cc1 (stereo not given)
-4.1% | 10.7% | CC1=NN(C(=O)c2csc(C)c2C)C(O)(C(F)(F)F)C1 (stereo not given)
-5.5% | -12.8% | c1coc(-c2cc(C3CCNCC3)[nH]n2)c1
-0.8% | -4.7% | NS(=O)(=O)c1ccc(CCNC(=O)c2ccc(Cl)nc2)cc1
-2.3% | -0.4% | CC1CCN(c2ncccc2C(=O)O)CC1
-4.7% | 7.2% | COc1ccc(S(=O)(=O)N(CCc2ccccc2)CC(=O)O)cc1Cl
-4.6% | 18.1% | Cc1cccc(-c2nc3ccccc3c(=O)n2NC(=O)c2cccs2)c1
-2.6% | 5.0% | N/C(Cn1nnc(-c2ccccc2)n1)=N\O
-1.0% | 7.4%[2.35 µM] | Cc1ccc(C(=O)OCC(=O)NCc2ccc3c(c2)OCO3)s1
-9.1% | 20.4% | N#C/C(=C\C1CC2C=CC1C2)c1nc2ccccc2[nH]1 (stereo not given)
-14.6% | . | Cc1nc2ccccn2c(=O)c1NC(=O)c1c(F)cccc1F
-2.7% | -6.5% | COc1ccc(C2NC(=S)NC3=C2N2CCC3CC2)cc1 (stereo not given)
3.3% | 16.0% | O=C(Nc1ccc2nc[nH]c2c1)c1ccco1
-3.0% | -2.7% | CN1CCN(CCC(=O)Nc2ccc3c(c2)OCO3)CC1
-3.7% | . | O=C(CN1C(=O)NC2(CCCC2)C1=O)Nc1nc(-c2ccc(F)c(F)c2)cs1
? | -5.8% | CCN(CC)c1ccc(S(=O)(=O)N2CCOCC2)cc1NC(=O)CNCc1ccccc1
-0.4% | -12.7% | CCC1Nc2ncnc(N3CCN(c4ccccn4)CC3)c2N(Cc2ccc(Cl)cc2)C1=O (stereo not given)
-7.1% | -4.7% | CC1(c2nnc(-c3ccncc3)o2)CC(c2ccc(F)cc2)=NO1 (stereo not given)
0.4% | 21.5% | C/C(=N\NC(=O)c1ccccn1)C12CC3CC(CC(C3)C1)C2
-3.5% | -17.9%[2.35 µM] | O=C(Nc1cccc2cccnc12)c1cccc(N2C(=O)CCC2=O)c1
0.0% | -1.2% | CCOc1ccc(C(C)=O)cc1COC(=O)CCc1cc(OC)c(OC)c(OC)c1
-10.0% | . | CCOC(=O)c1ccc(-c2c(-c3ccc(OC)cc3)oc(=O)c3cc(OC)c(OC)cc23)cc1F
-1.0% | 0.2% | C=CCNC(=O)COC(=O)COc1ccc(Cl)cc1
-14.6% | 3.0% | Cc1ccc(S(=O)(=O)CCC(=O)OCc2ccc(S(=O)(=O)C(C)C)cc2)cc1
-3.6% | 1.6% | O=C(NCc1ccccc1)Nc1cccn(Cc2ccc(Cl)cc2)c1=O
-13.5% | 5.4%[12.8 µM] | COc1ccc(S(=O)(=O)N2CCCCCC2)cc1N(C)S(=O)(=O)c1ccc(Cl)cc1
-19.2% | 8.1% | Cc1ccc(NC(=O)CN(C)C(=O)/C=C/c2cccc(F)c2)cc1
-3.9%[0.501 µM] | -9.0% | CN(C)S(=O)(=O)c1cccc(-c2nnc(-c3ccccc3)o2)c1
2.5% | 1.1% | COC(=O)c1ccc(/C=N\N2CCN(Cc3ccc(C)cc3)CC2)cc1
3.3% | 6.8% | COc1ccc(CCNC(=O)CCN2C(=O)COc3ccccc32)cc1OC
-0.8% | 2.2% | Cc1cc(C(=O)NCc2cccnc2)n(-c2ccccc2)n1
2.2% | . | CC(C)(C)N(Cc1ccccc1)C(=O)CN1C(=O)NC2(CCCCCC2)C1=O
2.3% | . | CSc1nnc2n(-c3cccc(C)c3)c(=O)c3c4c(sc3n12)CCCC4
-3.0% | -3.9% | COc1ccc(C(=O)NCC(=O)N2CCC3(CC2)NCCc2[nH]cnc23)cc1
-0.6% | 13.6% | c1ccc(-c2nnc(SCc3nc4ccccc4[nH]3)n2Cc2ccco2)nc1
-6.3% | -20.6% | Cc1ccc(S(=O)(=O)N2CCCC(C(=O)NNCC(=O)Nc3cc(F)ccc3F)C2)cc1 (stereo not given)
-0.6% | . | CC(NC(=O)COC(=O)c1ccc(CO)cc1)C1CC2CCC1C2 (stereo not given)
1.3% | 0.3% | CCN(CC)c1ccc(/C=N/O)cc1
-2.9% | 2.4% | O=C1CCc2cc(S(=O)(=O)N3CCC(C(=O)NCc4ccccc4Cl)CC3)ccc2N1
-4.0% | 13.7% | C#CCCCc1nc2ccccc2c(=O)n1N
-4.7% | 0.9% | O=C1[C@@H]2[C@@H]3C[C@@H]([C@H]4ON=C(c5ccc(Cl)cc5Cl)[C@@H]34)[C@@H]2C(=O)N1C1CCCCC1
4.1% | -24.3% | CC1(C)CC(Nc2ccc(C(F)(F)F)cc2[N+](=O)[O-])CC(C)(C)N1
9.7% | -15.6% | O=C(NC1=C(NC2CCS(=O)(=O)C2)C(=O)c2ccccc2C1=O)c1ccccc1 (stereo not given)
0.9% | -18.2% | CCn1c(SCC(=O)NC2CCCCC2)nnc1C(C)NC(=O)c1ccccc1F (stereo not given)
-4.7% | . | Cc1cccc2c1-c1sc(C(=O)N3CCN(c4ccccc4)CC3)cc1CO2
1.8% | ? | O=C(COc1ccccc1Cl)Nc1ccc(N2CCCC2)cc1
-5.2% | -2.3% | CCOC(=O)N1CCC(NC(=O)C(Cc2ccccc2)NC(=O)C2CCCCC2)CC1 (stereo not given)
-2.4% | 9.5% | O=C(COC(=O)CNS(=O)(=O)c1c(Cl)cccc1Cl)Nc1cccnc1Cl
? | 7.7% | COc1c(C)cc(C(=O)C2CCCN(S(=O)(=O)c3c(C)noc3C)C2)cc1C (stereo not given)
-1.9% | -1.1% | CSCCC(NS(=O)(=O)c1ccccc1)C(=O)OCc1nc2ccsc2c(=O)[nH]1 (stereo not given)
-0.2% | 5.4% | CC(C)C(OC(=O)CN1C(=O)c2ccccc2C1=O)C(=O)NC1CCCCC1 (stereo not given)
-4.2% | 17.4% | CCOc1nc2ccccc2nc1NS(=O)(=O)c1ccc(Cl)cc1
-1.7% | . | C/C(=N\NC(=O)COc1cccc(Br)c1)c1ccc2c(c1)OCCO2
-2.7% | -6.1% | O=C(CN1CCN(c2ccc(F)cc2)CC1)Nc1ccc(S(=O)(=O)N2CCOCC2)cc1
-0.1% | 8.9% | O=C(CSc1ccc(-c2ccncc2)nn1)N1CCCC1
-1.6% | -4.1% | COCCCn1c(=O)c2sccc2n2c(CCCC(=O)N(C)Cc3ccco3)nnc12
-4.0% | 6.1% | Oc1ccc(Cn2cc[nH]c2=S)cc1
-2.5% | . | O=C(CN1N=C(c2ccc(Cl)cc2)CCC1=O)NCCc1ccc(Cl)cc1
-2.8% | 19.8% | CCc1cc2cc3c(cc2nc1SCC(=O)N1CCN(C(=O)c2ccco2)CC1)OCO3

# Already shown: entries from further up.
KAT2A inh | N370S GC | mol
-2.5% | . | O=C(CN1N=C(c2ccc(Cl)cc2)CCC1=O)NCCc1ccc(Cl)cc1
-2.8% | 19.8% | CCc1cc2cc3c(cc2nc1SCC(=O)N1CCN(C(=O)c2ccco2)CC1)OCO3
